Compound activity as filed in PubChem BioAssay.
SIRT5 block: sirtuin-5 (human) deacylase inhibition; Purified SirT5, succinyl-peptide AMC, trypsin-coupled fluorescence; inhibition, % at 15 µM; actives 1.1% (n = 330,000); AID 652115; in the data active = inhibition above about 15%
Target sequence (Q9NXA8 whole entry, looked up): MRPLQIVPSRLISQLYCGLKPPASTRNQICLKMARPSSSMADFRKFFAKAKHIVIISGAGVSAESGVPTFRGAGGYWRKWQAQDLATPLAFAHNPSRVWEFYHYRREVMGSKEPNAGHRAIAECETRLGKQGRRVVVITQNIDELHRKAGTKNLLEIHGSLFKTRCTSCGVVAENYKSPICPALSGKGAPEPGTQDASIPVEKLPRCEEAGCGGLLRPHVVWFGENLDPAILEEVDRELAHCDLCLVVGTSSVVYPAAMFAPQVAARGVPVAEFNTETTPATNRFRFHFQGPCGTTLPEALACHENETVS
C2C12 statin: protects C2C12 myotubes from simvastatin toxicity; ATP luminescence, 48 h; scaled: DMSO 0, geranylgeraniol control 100; rescue of ATP level, % at 7.49 µM; AID 602340; actives 0.78% (n = 330,000);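 active = mean ATP rescue above about 67%, or every replicate alone reaching that limit, limit read from the data, passing the limit was not always enough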;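 note: myotubes were challenged with 10 µM simvastatin during compound exposure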
ERp5 inh: blocks human ERp5 reductase activity on insulin. Q15084. ERp5 insulin aggregation, absorbance 650 nm, 90 min. inhibition, % at 9.99 µM. actives 0.05% (n = 350,000);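 active = mean replicate inhibition above about 25%, with every replicate also reaching it, limit read from the data, passing the limit was not always enough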
Target sequence (Q15084 whole entry, looked up): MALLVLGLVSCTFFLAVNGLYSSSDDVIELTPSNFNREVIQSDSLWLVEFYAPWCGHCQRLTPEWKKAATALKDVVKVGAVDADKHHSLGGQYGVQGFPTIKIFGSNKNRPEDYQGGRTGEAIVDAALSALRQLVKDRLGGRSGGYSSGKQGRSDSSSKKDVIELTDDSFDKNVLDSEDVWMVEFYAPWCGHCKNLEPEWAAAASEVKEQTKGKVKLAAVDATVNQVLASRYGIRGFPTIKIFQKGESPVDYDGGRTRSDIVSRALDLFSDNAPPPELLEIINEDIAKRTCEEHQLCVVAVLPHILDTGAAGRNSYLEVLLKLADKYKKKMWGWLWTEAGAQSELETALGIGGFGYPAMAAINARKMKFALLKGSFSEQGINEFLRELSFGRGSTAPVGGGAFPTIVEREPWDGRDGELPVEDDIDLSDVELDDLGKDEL
miR122 inh: blocks miR-122 activity in Huh7 sensor cells. activation (reporter increase), % at 12.5 µM. Huh7 miR-122 Renilla luciferase sensor, 48 h; neutral wells = 0, positive control = 100. actives 0.3% (n = 340,000);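 active = mean replicate activation score at least 90 and every replicate individually at or above 90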;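 note: higher luciferase means less miR-122 activity so hits act as miR-122 inhibitors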
esBAF inh: inhibitors of esBAF chromatin remodeling in mouse ES cells. actives 2% (n = 350,000). reporter increase, % at 12.5 µM. AID 602393. Bmi1-luciferase knock-in reporter, 24 h; 100% = twice the neutral-well signal; in the data active = activation above about 40%;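 note: 0% = median of the plate's neutral control wells and 100% = double that signal; a rise in the Bmi1 reporter signal indicates esBAF inhibition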
Cneo AK release: Cryptococcus neoformans lysis via adenylate kinase release. C. neoformans lysis, adenylate kinase release luminescence, 4 h; normalised: neutral wells 0, clomiphene wells 100. lysis activity, % at 15 µM. actives 0.2% (n = 360,000). AID 651654;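 active = mean lysis activity across replicates of at least 80%, whatever share of replicates individually reach that level; inactive = mean lysis activity below 80%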
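Material – log-phase Cryptococcus neoformans yeast cells · Input – 5 × 10^6 yeast cells/mL · Medium – fresh YPD growth medium · Doses – single compound concentration per well · Timing – static 4 h at 37 °C with compound, 1 h detection · Detection – adenylate kinase release luminescence · Read-out – signal increase indicating cell lysis · Control set – Clomiphene as positive lysis control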
Starred values were filed as active, the others as inactive; / = no result given; & = joins results of further samples; [ ] = dose if it differs, or a comment.

SMILES	SIRT5 block	C2C12 statin	ERp5 inh	miR122 inh	esBAF inh	Cneo AK release
O=C(Nc1ccc(NC(=O)c2ccccc2F)cc1)c1cccs1	-4.1	-9.3	-6.8	3.8	73.6*	-3.2
O=C(NCc1ccco1)C1(S(=O)(=O)c2ccc(Cl)cc2)CC1	/	-18.4	/	-2.0	2.9	4.4
C[C@H]1CCCCO[C@H](CN(C)S(=O)(=O)c2cccs2)[C@@H](C)CN([C@@H](C)CO)C(=O)c2cc(NS(C)(=O)=O)ccc2O1	-1.7	-13.3	-16.8	13.1[16.7 µM]	2.5	55.9
O=C(Nc1ccccc1N1CCOCC1)c1ccc2nc[nH]c2c1	-3.7	3.0	-0.6	3.1	-1.2	-3.7
CC(C)NC(=O)Nc1ccc2c(c1)CC(=O)N([C@H](C)CO)C[C@H](C)[C@H](CN(C)Cc1ccc(Oc3ccccc3)cc1)O2	1.5	36.0	-1.7	-0.5[16.7 µM]	1.6	1.7
COc1ccc(/C=C(/Sc2nnc(-c3ccc(Cl)cc3)o2)C(=O)O)cc1	-3.9	/	-0.9	/	/	/
CCOC(=O)C1CCN(C(=O)c2ccc3c(c2)NC(=O)/C(=C\c2ccc(C)cc2)S3)CC1	5.1	3.6	-1.0	-1.6	2.8	2.9
COc1ccc(-c2nnc3c4ccccc4c(C)nn23)cc1S(=O)(=O)N1CCN(CCO)CC1	/	-18.3	/	-7.8	5.2	0.4
CCn1cc(C(=O)O)c(=O)c2ccc(C)nc21	-0.3	8.2	0.7	-3.2	0.2	2.1
CN(C)S(=O)(=O)c1ccc(N/C=C(\[N+](=O)[O-])S(=O)(=O)c2ccccc2)cc1	0.2	5.8	0.8	3.9	-7.7	1.5
COc1ccc(OC)c(NC(=O)CSc2nc(N)c(-c3ccccc3)c(=O)[nH]2)c1	-4.4	4.5	-1.9	/	-0.1	7.5
CC=Cc1ccc2n(c1=O)C[C@@H]1[C@@H](CO)[C@H](C(=O)NC3CCC3)[C@H]2N1S(=O)(=O)c1cn(C)cn1 (mixture of isomers)	-27.4	25.9	-6.2	/	-4.9	-2.4
COc1ccc(-c2csc(N3CCC(c4ccccc4)C3)n2)cc1 (stereo not given)	/	/	/	-8.3	/	-3.9
OC(CSc1ccccc1Cl)CN1CCN(c2ccccc2F)CC1 (stereo not given)	/	3.7	/	1.0	0.3	-2.7
CCC(C)N1CCCC1C(=O)Nc1c(C)cc(C)cc1C (stereo not given)	/	1.4	/	/	1.2	-6.9
Cc1cc(C)c(S(=O)(=O)Nc2cccc(/C=C/C(=O)O)c2)c(C)c1	/	/	/	-1.7	/	2.8
O=C(CSc1ccc(-c2ccco2)nn1)N1CCCCCC1	/	/	-0.6	/	/	/
COCC(=O)N(C)C[C@H]1Oc2cc(C#Cc3cccnc3)ccc2S(=O)(=O)N([C@H](C)CO)C[C@H]1C	-2.6&-4.4&-0.1	4.6&-8.2&5.3	3.0&-4.4&-1.9	-13.5	-0.9&-0.4&-1.2	0.1&3.2&-3.4
CCn1nc(C(=O)O)c(=O)c2cc3c(cc21)OCO3	8.4	1.8	0.0	-2.9	2.0	1.2
O=S(=O)(c1ccc(F)cc1)N1CCN(Cc2cc3c(cc2Br)OCCO3)CC1	-1.5	6.9	8.2	25.3	-2.3	-1.4
O=C(COC(=O)c1ccccc1NC(=O)c1ccccc1)c1ccc([N+](=O)[O-])cc1	/	-2.9	/	-15.2	0.4	1.3
COc1cc2sc3cc(NCc4ccc5c(c4)OCO5)ccc3c(=O)c2cc1OC	/	33.0	5.5	10.6	35.7	-0.8
CCOc1ccc(-n2c(SCC(=O)NC)nnc2-c2ccco2)cc1	-4.6	1.6	-1.1	/	-4.7	0.8
O=C(NC1CCOC1)c1cc(COc2cccc(C(F)(F)F)c2)on1 (stereo not given)	-1.3	-4.7	2.8	2.5	28.7	-1.2
COC(=O)c1cc(NC(=O)CN(c2cccc(OC)c2)S(=O)(=O)c2ccccc2)ccc1Cl	/	7.8	6.5	-0.8	4.1	-0.7
CO[C@@H]1CN(C)C(=O)c2cc(NS(=O)(=O)CC(F)(F)F)ccc2OC[C@H](C)N(Cc2cccnc2)C[C@H]1C	/	10.7	4.1	/	-3.8	-0.2
CCN(CC)c1ccc(C=Nc2cccnc2Cl)c(O)c1	-1.2	-2.2	-2.7	-13.3	3.0	-1.2
Fc1cccc(Cl)c1CSc1ncn[nH]1	/	/	/	-1.5	-11.5	-1.4
COc1ccc([N+](=O)[O-])cc1NC(=O)COC(=O)c1ccccn1	8.3	5.0	0.6	-7.9	3.3	-0.9
CC1=C(C(=O)Nc2ccccc2)C(c2cccs2)n2nnnc2N1 (stereo not given)	0.7	31.5	-4.1	-5.3	7.8	0.9
C[C@@H]1CCCCO[C@@H](CN(C)C(=O)Nc2ccc(F)cc2)[C@H](C)CN([C@H](C)CO)C(=O)c2cc(NS(=O)(=O)c3ccc(Cl)cc3)ccc2O1	5.6	/	2.1	-10.6[16.7 µM]	8.2	2.4
Cc1cccc(N2C(=O)c3cccnc3C2=O)c1	/	17.9	/	9.3	-5.2	-0.7
COc1cnc(-c2ccccn2)nc1Oc1ccc(Cl)cc1	/	0.2	/	2.7	-2.0	29.1
COc1ccc(C(=O)N/N=C/c2cc3ccccc3[nH]c2=S)cc1	/	/	/	-8.3	/	-5.1
Cc1ccc(S(=O)(=O)c2c(O)c3ccc(C(=O)O)cc3[nH]c2=O)cc1	-1.0	8.2	-4.0	/	-7.3	-0.8
COc1ccccc1N1C(=O)C2C(C(=O)c3ccccc3)=NN(c3ccccc3OC)C2C1=O (stereo not given)	-4.5	/	-3.7	/	/	/

In the list so far, these have a COOH group.
SMILES	SIRT5 block	C2C12 statin	ERp5 inh	miR122 inh	esBAF inh	Cneo AK release
COc1ccc(/C=C(/Sc2nnc(-c3ccc(Cl)cc3)o2)C(=O)O)cc1	-3.9	/	-0.9	/	/	/
CCn1cc(C(=O)O)c(=O)c2ccc(C)nc21	-0.3	8.2	0.7	-3.2	0.2	2.1
Cc1cc(C)c(S(=O)(=O)Nc2cccc(/C=C/C(=O)O)c2)c(C)c1	/	/	/	-1.7	/	2.8
CCn1nc(C(=O)O)c(=O)c2cc3c(cc21)OCO3	8.4	1.8	0.0	-2.9	2.0	1.2
Cc1ccc(S(=O)(=O)c2c(O)c3ccc(C(=O)O)cc3[nH]c2=O)cc1	-1.0	8.2	-4.0	/	-7.3	-0.8

Additional records.
SMILES	SIRT5 block	C2C12 statin	ERp5 inh	miR122 inh	esBAF inh	Cneo AK release
COc1ccc(CN2CCNC(=O)C2CC(=O)NCCC2=CCCCC2)cc1OC (stereo not given)	0.0	/	4.7	/	/	/
CCCCOc1ccccc1-c1cc(C(=O)O)[nH]n1	/	-8.7	/	-6.7	-8.2	12.6
O=C(NCc1ccccn1)c1ccc(S(=O)(=O)Nc2ccccc2F)cc1	0.5	/	-2.2	/	/	-0.3
C[C@H](CO)N1C[C@H](C)[C@H](CN(C)C(=O)c2ccccc2F)Oc2ncc(-c3cncnc3)cc2C1=O	-1.0	-0.5	-1.2	0.7[16.7 µM]	-0.5	0.5
Oc1ccc(N2CCN(Cc3cc4c(cc3Br)OCCO4)CC2)cc1	1.6	7.9	0.2	/	-6.4	21.6
C=CCn1c(COc2ccc(Cl)cc2)nnc1SCC(=O)Nc1ccc(S(N)(=O)=O)cc1	-0.2	-11.2	4.4	22.6	-0.4	4.2
C[C@@H]1CN([C@@H](C)CO)C(=O)c2cccc(NC(=O)c3ccncc3)c2O[C@H]1CN(C)S(=O)(=O)c1cccs1	1.4	-3.6	3.5	-15.9[16.7 µM]	2.4	0.9
C=CCN1CC(C(=O)N2CCC(Cc3ccc(Cl)cc3)(C(=O)OCC)CC2)CC1=O (stereo not given)	-8.7	/	0.9	-3.8	/	5.9
CC(=O)N(C)C[C@@H]1Oc2cc(-c3ccc(C#N)cc3)ccc2S(=O)(=O)N([C@H](C)CO)C[C@@H]1C	-3.4	-1.4	-0.2	3.6[16.7 µM]	-12.2	-2.9
COc1ccc(C2NC(c3ccc(OC)c(OC)c3OC)C(C)C(=O)C2C)c(OC)c1OC (stereo not given)	/	86.3*	/	-3.7	2.3	-1.3
C=CCNC(=S)N1N=C(c2ccco2)CC1c1ccco1 (stereo not given)	1.4	0.0	0.4	1.7	-4.5	-1.4
CCOc1ccc(Cl)cc1C(c1c(C)[nH][nH]c1=O)c1c(C)[nH][nH]c1=O	-0.5	46.1	2.1	-1.4	6.1	-0.6

Given as comma-separated lines: three of the compounds above
canonical_smiles,SIRT5 block,C2C12 statin,ERp5 inh,miR122 inh,esBAF inh,Cneo AK release
C=CCn1c(COc2ccc(Cl)cc2)nnc1SCC(=O)Nc1ccc(S(N)(=O)=O)cc1,-0.2,-11.2,4.4,22.6,-0.4,4.2
C=CCN1CC(C(=O)N2CCC(Cc3ccc(Cl)cc3)(C(=O)OCC)CC2)CC1=O (stereo not given),-8.7,/,0.9,-3.8,/,5.9
COc1ccc(C2NC(c3ccc(OC)c(OC)c3OC)C(C)C(=O)C2C)c(OC)c1OC (stereo not given),/,86.3*,/,-3.7,2.3,-1.3

(next part)
SMILES	SIRT5 block	C2C12 statin	ERp5 inh	miR122 inh	esBAF inh	Cneo AK release
COc1ccc(CNCC(O)COc2cccc3c2OC(C)(C)C3)cc1 (stereo not given)	-4.3	-34.9	-5.1	-5.3	5.0	-4.4
CC(=O)N1CCn2c3c(c(=O)c4cc(C)ccc42)CCC31 (stereo not given)	/	-4.7	/	-4.2	-0.5	0.1
COC(=O)c1cccc(N2C(=O)c3cccnc3C2=O)c1	/	/	/	-4.3	-1.7	0.1
O=C(CSc1cn[nH]n1)Nc1ccccc1F	-12.3	6.7	-3.8	-2.2	0.7	-0.5
CNC[C@@H]1Oc2c(NS(=O)(=O)c3cccs3)cccc2C(=O)N([C@H](C)CO)C[C@H]1C	9.4	15.0	-3.1	-1.2[16.7 µM]	-1.5	-2.0
C/C(=N\NC(=O)c1cccnc1)c1c(O)cc(C)oc1=O	/	/	1.1	2.1	/	-4.2
O=C(Nc1ccc(N2CCOCC2)cc1N1CCOCC1)c1ncoc1-c1cccc(F)c1	2.9	-31.7	0.4	5.6	14.9	-2.9
Cc1cc(C#Cc2c(-c3ccccc3)n(C)c3ccccc23)ccc1F	/	-8.8	-3.5	3.1	5.7	3.4
O=C(C[C@H]1C[C@H]2c3cc(NC(=O)NC4CCCCC4)ccc3O[C@H]2[C@@H](CO)O1)NCc1ccccc1	1.6	1.0	2.9	1.4[16.7 µM]	-1.1	-1.4
Cc1cc(C)c2c(CC(=O)NC3CCS(=O)(=O)C3)coc2c1 (stereo not given)	2.0	-1.1	5.7	-5.8	-0.6	0.3
Cc1ccc(S(=O)(=O)N(C)C[C@H]2Oc3c(NC(=O)NC4CCCCC4)cccc3C(=O)N([C@@H](C)CO)C[C@H]2C)cc1	7.5	-12.2	-6.2	7.0[16.7 µM]	6.9	-3.0
COc1ccc(-c2csc(=Nc3c(C)n(C)n(-c4ccccc4)c3=O)n2C(C)(C)C)cc1	/	10.6	/	/	-2.4	-0.4
CC(=O)Nc1ccc(NC(=O)c2ccc(NS(=O)(=O)c3cc(C(C)(C)C)cc(C)c3C)cc2)cc1	/	/	5.5	/	/	2.3
CN(C)CCCNc1cc(Cl)c(S(=O)(=O)N2CCCCC2)cc1C(=O)O	-3.5	-5.1	-3.2	-1.8	-1.7	-1.4
COCC(=O)N(C)C[C@H]1Oc2cc(C#Cc3cccnc3)ccc2S(=O)(=O)N([C@H](C)CO)C[C@@H]1C	1.7	11.1	-1.4	-14.3[16.7 µM]	-4.6	52.2
Cc1cc(Cl)ccc1OCCCC(=O)Nc1cccc(-n2cnnn2)c1	-3.8	-33.2	3.9	-0.7	0.7	10.8

Results in esBAF inh, C2C12 statin and SIRT5 block, for two of the compounds above:
SMILES	esBAF inh	C2C12 statin	SIRT5 block
C[C@@H]1CCCCO[C@@H](CN(C)C(=O)Nc2ccc(F)cc2)[C@H](C)CN([C@H](C)CO)C(=O)c2cc(NS(=O)(=O)c3ccc(Cl)cc3)ccc2O1	8.2	/	5.6
Cc1cccc(N2C(=O)c3cccnc3C2=O)c1	-5.2	17.9	/

An excerpt, so the mix of outcomes need not match the whole.
